Screens from PubChem.
RE007 growth inh = less growth of the S. pombe RE007 Vpr strain. Potency, µM (series often up to 92.2 µM), for the others: at the top dose activity change, negative = less growth. 0.21% of 360,000 active. AID 651644. S. pombe RE007 Vpr strain, BacTiter-Glo ATP luminescence, 24 h; control for the full effect not named in the record; active = well fitted falling curve with a large enough effect; inconclusive = small, poorly fitted or top-dose-only effect; inactive = no such curve, though single readings can be large or run the other way;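 also: % is scaled to controls: 0 for no effect and ±100 for the full control effect; nearly all actives have a fitted effect of over 50% in size; the assay follows cell death caused by Vpr and the record does not say whether a fall means rescue or toxicity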
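Fission yeast strain RE007, carrying one chromosomally integrated HIV-1 vpr copy, was seeded at OD 0.01 in PMG+AL medium with 23 nL pinned compound. After 24 h at 30 °C and 99% humidity, viability was read by BacTiter-Glo luminescence.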
LASV entry inh = inhibitors of Lassa virus binding or cell entry; 1.2% of 300,000 active; AID 540256; Potency, µM (doses to about 37.9 µM), inactives show top-dose activity change, negative = inhibition, most hits filed as inhibitors; Lassa virus pseudotype entry inhibition, cell reporter; control for the full effect not named in the record; active means well fitted inhibition curve with a large enough effect; inconclusive means small, poorly fitted or top-dose-only effect, or effect the other way; inactive means flat fitted curve, though single readings scatter; tested in HEK293 cells; also: % is scaled to controls: 0 for no effect and ±100 for the full control effect; nearly all actives have a fitted effect of over 50% in size; luciferase read-out
Cruzain inh noDet = cruzain (T. cruzi) inhibition without detergent; purified cruzain, Z-FR-AMC fluorescence, no detergent; Potency, µM, for inactives: max response, negative = inhibition, most hits filed as inhibitors; 2.3% of 200,000 active; active = well fitted curve in the direction sought with a large enough effect; inconclusive = small, poorly fitted or top-dose-only effect, or another doubt; inactive = no such curve, though single readings can be large; an effect the other way counts as inactive or inconclusive;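 also: plate controls were enzyme without inhibitor for no effect and buffer without enzyme for full effect; nearly all actives have a fitted effect of over 40% in size; top concentration of the series not given in the record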
Target sequence (P25779 123-467 limits assumed): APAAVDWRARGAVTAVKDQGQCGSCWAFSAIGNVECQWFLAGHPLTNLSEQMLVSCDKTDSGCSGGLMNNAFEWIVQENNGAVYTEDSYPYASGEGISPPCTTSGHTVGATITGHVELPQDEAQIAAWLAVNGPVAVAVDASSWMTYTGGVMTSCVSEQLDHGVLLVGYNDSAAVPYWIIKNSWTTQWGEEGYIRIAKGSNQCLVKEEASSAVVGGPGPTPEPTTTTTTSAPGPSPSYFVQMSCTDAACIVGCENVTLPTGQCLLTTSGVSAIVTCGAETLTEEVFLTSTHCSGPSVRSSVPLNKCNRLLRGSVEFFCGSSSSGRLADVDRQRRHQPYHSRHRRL
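Purified cruzain at 1.5 nM, pre-incubated 15 min with compound at room temperature in 100 mM sodium acetate pH 5.5, 5 mM DTT, 0.00005% Triton X-100. Reaction started with 2 uM Z-FR-AMC; AMC fluorescence increase over 60 s gives rate.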
SARS PLP yeast = blocks SARS-CoV papain-like protease in a yeast assay; S. cerevisiae expressing SARS-CoV PLpro, growth rescue; control for the full effect not named in the record; Potency, µM (top dose mostly 32.9 µM), for the others: at the top dose activity, positive = growth rescue; 0.19% of 330,000 active; also: 0% is about no effect; nearly all actives have a fitted effect of over 55% in size; growth read by luminescence after 48 h
StopGo reporter = lowers the luciferase signal of an FMDV 2A StopGo reporter. human cells with a luciferase reporter of 2A StopGo recoding; control for the full effect not named in the record. Potency, µM (doses to about 57.9 µM), for inactives: at the top dose signal change, negative = less light. 1.2% of 410,000 active. AID 1159524; active = well fitted falling curve with a large enough effect; inconclusive = small, poorly fitted or top-dose-only effect; inactive = no such curve, though single readings can be large or run the other way; tested in HEK293T cells; also: % is scaled to controls: 0 for no effect and ±100 for the full control effect; nearly all actives have a fitted effect of over 45% in size; luciferase light after 4 h
Cruzain inh Det = cruzain (T. cruzi) inhibition with detergent; P25779; purified cruzain, Z-FR-AMC fluorescence, 0.01% Triton; Potency, µM, for inactives: max response, negative = inhibition, most hits filed as inhibitors; 0.43% of 200,000 active; active = well fitted curve in the direction sought with a large enough effect; inconclusive = small, poorly fitted or top-dose-only effect, or another doubt; inactive = no such curve, though single readings can be large; an effect the other way counts as inactive or inconclusive;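 also: plate controls were neutral wells for no effect and buffer without enzyme for full effect; nearly all actives have a fitted effect of over 40% in size; top concentration of the series not given in the record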
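Cruzain (1.5 nM) preincubated 15 min at RT with compound in 100 mM sodium acetate pH 5.5, 5 mM DTT, 0.01% Triton X-100. Reaction started with 2 uM Z-FR-AMC; AMC fluorescence (ex 360/em 450 nm) change over 60 s gave rate.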
NS1 inh = inhibitors of influenza NS1 protein function; S. cerevisiae slowed by influenza A NS1, growth recovery by OD600; Potency, µM (top dose mostly 46.1 µM), inactives show at the highest dose activity, positive = more growth; 0.4% of 270,000 active; also: actives are rising curves; nearly all actives have a fitted effect of over 50% in size
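Growth recovery, yeast-based: influenza A NS1 expressed in S. cerevisiae causes slow growth, and suppressors are detected by OD600. The parent strain without NS1 is used as positive control.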
Marburg entry inh = blocks Marburg virus binding to or entry into cells; Potency, µM (doses to about 37.8 µM), for inactives: top-dose activity change, negative = inhibition, most hits filed as inhibitors; 1.8% of 300,000 active; AID 540276; Marburg virus pseudotyped entry inhibition, cell reporter; control for the full effect not named in the record; about a third of the inactives were read at about 46 µM; active = well fitted inhibition curve with a large enough effect; inconclusive = small, poorly fitted or top-dose-only effect, or effect the other way; inactive = flat fitted curve, though single readings scatter; tested in HEK293 cells; about a fifth of its hits are not listed in these tables; also: % is scaled to controls: 0 for no effect and ±100 for the full control effect; luciferase read-out
* hit, by the source's call; ? = inconclusive; . = no result given; & = joins results of further samples; [ ] = remark or other dose. Unless noted, calls follow the shape of the dose curve; as a rule, active means well fitted rising curve with a large enough effect; inconclusive means small, poorly fitted or top-dose-only effect; inactive means no such curve, though single readings can be large or run the other way. Potency is read from the fitted curve at half-maximal effect.

SMILES | RE007 growth inh | LASV entry inh | Cruzain inh noDet | SARS PLP yeast | StopGo reporter | Cruzain inh Det | NS1 inh | Marburg entry inh
C=CCn1c(-c2cccc([N+](=O)[O-])c2)n[nH]c1=S | -8.4% | ? | . | 3.5% | -10.2% | . | . | -2.3%[46.1 µM]
COC(=O)c1cc(S(=O)(=O)NCc2ccccc2Cl)c[nH]1 | -16.6% | . | . | 3.8% | 34.1%[activator] | . | 6.0% | .
CCOc1cc(C2C3=C(CC(C)(C)CC3=O)N(CCOC)C3=C2C(=O)CC(C)(C)C3)ccc1O | -7.4% | . | . | -4.6% | -8.5% | . | 19.4% | .
COc1ccc(N2C(=O)[C@@H]3[C@H](C2=O)[C@H](C(=O)c2ccc(OC(C)=O)cc2)N2N=CC=C[C@@H]32)cc1 | . | ? | ? | -11.3% | . | -3.3% | ? | -1.0%
CCCc1ccc(C(=O)/C=C/N(C)C)cc1 | ? | ? | . | -1.9% | -27.6% | . | -3.4% | ?
COc1ccc(CNc2nc(-c3cccnc3)nn2C(=O)c2cccs2)cc1 | -4.1% | -1.6% | 21.5% | 6.4% | ? | -5.4% | 0.1% | 8.8%
CCOC(=O)c1cccc(NC(=O)c2sc3nc[nH]c(=O)c3c2C)c1 | . | 17.7%[46.1 µM] | -19.7% | . | 0.4% | -4.4% | . | .
Cc1cccc2cc3c(N)c(C#N)sc3nc12 | ? | -17.7% | -10.4% | -0.8% | 10.6% | -2.7% | -14.3% | ?
COc1ccc(C2N3CC4(C)CN2CC(C)(C3)C4)cc1OC (stereo not given) | 6.9% | 18.4% | 2.0% | -2.1% | 3.2% | 6.0% | 7.6% | 14.1%
Cc1ccc(S(=O)(=O)NC(CC(=O)O)c2ccccc2)c(C)c1 (stereo not given) | 2.2% | 0.0% | 8.6% | -9.9% | . | 6.0% | ? | 3.9%
CC(=O)c1cccc(NC(=O)Cn2nc(-c3ccccc3Cl)ccc2=O)c1 | -6.7% | -11.5% | . | 0.3% | -24.8% | . | . | -1.2%[46.1 µM]
CCOCCCNc1nc(=S)[nH]c2cc(OC)c(OC)cc12 | 5.0% | -16.6% | -9.3% | -3.3% | 0.6% | -7.4% | -8.2% | -2.9%
O=C1CSC(c2cccs2)N1c1ccccc1 (stereo not given) | 6.0% | 8.2% | -4.2% | -3.5% | . | 2.1% | 8.0% | 24.8%
Cc1nn(-c2ccccc2)c2c1C(c1ccco1)C(C#N)=C(N)O2 (stereo not given) | -24.3% | 11.2% | -1.0% | -29.4% | 30.9%[activator] | 5.1% | -81.9% | -12.6%
CCOc1ccc(-n2c(=S)sc3c(=O)n(-c4ccccc4)c(SCC(=O)O)nc32)cc1 | 9.1% | . | . | 0.3% | -3.7% | . | 0.0% | .
CCn1cc(C2CC(=O)NC2=O)c2ccccc21 (stereo not given) | -2.3% | . | . | 2.9% | -5.8% | . | 0.2% | .
OC1(c2ccccc2)CCN(Cc2ccccc2)CC1 | -4.4% | 7.8% | . | -4.8% | -11.6% | . | . | -10.6%[14.2 µM]
CCN1CCN(Cc2c(O)ccc3c(=O)c(-c4ccccc4OC)coc23)CC1 | 0.5% | 8.2% | 1.8% | -6.1% | . | 2.4% | 5.9% | -13.1%
Cc1ccc(O)c(NS(=O)(=O)c2cccc3nsnc23)c1 | -1.0% | 6.3%[46.1 µM] | . | -1.1% | 9.1% | . | -2.7% | 9.6%[46.1 µM]
Cc1cc2nc(N(Cc3cccnc3)C(=O)c3ccc(Cl)s3)sc2cc1C | . | 6.0%[46.1 µM] | 1.0% | . | 0.6% | -1.0% | . | .
Cc1cc(C(=O)Nc2ccccc2C)n(-c2ccccc2)n1 | 12.9% | 6.5% | . | 0.2% | 1.6% | . | 1.9% | -1.7%
O=C(O)c1ccccc1N/N=C\c1ccnc2ccccc12 | -10.6% | ? | ? | 0.6% | 10µM* | -7.0% | 4.8% | 3.98µM*
COc1ccc(-c2nn(-c3ccccc3)cc2/C=C(/C#N)C(N)=O)cc1[N+](=O)[O-] | . | 1.9% | 4.2% | 19.3% | -1.3% | -1.9% | 3.7% | -12.3%
CCCCOC(=O)Cn1cnc2ccc(Br)cc2c1=O | 0.2% | 0.7% | 8.2% | -5.3% | 11.8% | -1.4% | -86.3% | -0.5%
Cc1ccccc1CC1(CO)CCCN(Cc2ccc(C#CC(C)(C)O)cc2)C1 (stereo not given) | 9.2% | 0.4%[46.1 µM] | . | -0.6% | 14.8% | . | 0.6% | ?
CCn1c(SCC(=O)Nc2sc3c(c2C#N)CCC(C(C)(C)C)C3)nnc1-c1ccco1 (stereo not given) | 1.3% | 8.6% | -4.0% | ? | -3.0% | -3.7% | 9.3% | 10.7%
COc1ccc(CCn2c(C)cc(C(=O)CSc3nc(N)cc(=O)[nH]3)c2C)cc1 | 5.8% | ? | 25.1µM* | 3.7% | 17.8µM* | 0.3% | 16.5% | ?
CCCN(CCC)Cc1cc(=O)oc2cc3c(cc12)CCC3 | ? | 9.7%[46.1 µM] | . | 0.0% | ? | . | -4.2% | 10.9%[46.1 µM]
CN(C)S(=O)(=O)N1CCN(CC(O)COc2ccc3cc(Br)ccc3c2)CC1 (stereo not given) | -7.1% | 0.1% | ? | -5.8% | -28.9% | -15.9% | -104.7% | ?
Cc1ccc(S(=O)(=O)n2nc(-c3ccc(Cl)cc3)nc2NCc2ccccc2)cc1 | . | 4.6%[46.1 µM] | -1.9% | . | 3.9% | 1.6% | . | 4.2%[46.1 µM]
c1ccc(CCN2CCN=C2Nc2ccccc2)cc1 | -9.2% | . | . | -0.8% | -8.7% | . | -13.2% | .
Cc1cc2n(n1)CCC(=O)N2Cc1ccc(C(=O)Nc2cccc(C(F)(F)F)c2)cc1 | . | -10.0%[46.1 µM] | ? | . | -25.8% | -7.7% | . | .
O=C(Cn1ncc2c3ccccc3n(Cc3cccc(Cl)c3)c2c1=O)NCc1cccs1 | . | -9.5%[46.1 µM] | 20.5% | . | -1.0% | -8.5% | . | 4.9%[46.1 µM]
COC(=O)c1c(NC(=O)c2nc3ccccc3s2)sc2c1CC(C)(C)NC2(C)C | 9.5% | . | . | -0.4% | -28.5% | . | 4.7% | .
Cc1nn(CCC(=O)NC(C)C)c(=O)c2nn(-c3ccccc3)c(C)c12 | . | -16.6%[46.1 µM] | -5.1% | . | -13.1% | -3.5% | . | .
CCOc1ccc2c(c1)n([O-])c1c([n+]2=O)CCCC1 | 10.5% | 0.6% | -8.9% | 5.6% | ? | -5.6% | -6.8% | ?
CCCCNC(=O)C(=O)N/N=C/c1ccc(OCC(=O)Nc2cccc(OC)c2)c(OC)c1 | 16.8% | ? | -16.3% | 9.1% | -23.7% | -22.5% | ? | ?
Cc1c(NC(=O)COC(=O)c2ccccc2Cl)c(=O)n(-c2ccccc2)n1C | -12.9% | -6.9% | . | 1.8% | -5.0% | . | -3.4% | ?
CCOC(=O)C1CCN(S(=O)(=O)c2ccc(C)cc2)CC1 | 13.3% | -7.1% | 5.2% | -2.0% | . | -9.3% | -2.7% | 5.9%
Cc1ccccc1C(=O)Nc1nnc(SCc2cc(=O)n3ccccc3n2)s1 | . | -11.3%[46.1 µM] | 5.8% | . | -0.2% | 2.5% | . | .
O=C1CC(c2ccc3c(c2)OCO3)Sc2nc3ccccc3n21 (stereo not given) | -12.9% | ? | ? | -27.3% | 17.8µM* | -6.3% | -60.2% | ?
CCc1nc(CNC(=O)C2CCC(=O)N(CCc3ccc(OC)cc3)C2)cs1 (stereo not given) | -15.6% | 14.6% | . | 6.6% | -12.0% | . | -0.2% | ?
COC(=O)C1(C(F)(F)F)C2C=CC(C2)N1S(=O)(=O)c1ccc(C)cc1 (stereo not given) | 0.6% | -3.3%[46.1 µM] | . | -0.3% | -4.8% | . | -2.1% | -18.4%[46.1 µM]
O=C(c1cn(-c2ccccc2)nc1-c1cccs1)N(CCO)Cc1ccccc1 | -7.3% | -19.2% | 23.5% | 0.9% | -15.3% | -2.2% | -3.6% | -20.7%
O=c1[nH]c(SCc2ccccc2[N+](=O)[O-])nc2nc[nH]c12 | . | . | 1.3%&-0.9% | 3.3% | -13.7% | 5.9%&1.9% | 5.8%&1.4%&4.7% | .
C/C(=N/NC(=O)Cc1ccccc1)c1ccc(C)s1 | -16.3% | ? | 14.9% | -6.1% | 51.0%[activator] | -2.6% | 5.4% | ?
CC1SC(=Nc2ccccc2)N(S(=O)(=O)c2ccccc2)C1=O (stereo not given) | 18.2% | 3.9% | 6.1% | -0.8% | -14.9% | -2.2% | 14.7% | ?
CC(=O)N1CCN(c2ccccc2NC(=O)c2ccc(Br)o2)CC1 | 3.8% | -20.5% | . | 24.4% | -9.2% | . | 1.7% | 0.7%
CSc1nc(N2CCCC2)c2c(c1C#N)CC(C)(C)OC2 | 14.4% | 6.1% | 2.8% | 1.9% | -14.4% | -5.6% | -2.3% | 1.3%
CCOC(=O)c1c(S(=O)(=O)N2CCC(C(=O)NCc3cccc(OC)c3)CC2)c(C)n(C)c1C | . | 11.8%[46.1 µM] | ? | . | -15.8% | 2.1% | . | .
O=C(Nc1ccccc1O)c1ccc2c(c1)C(=O)N(N1C(=O)c3ccccc3C1=O)C2=O | -11.8% | 28.0% | . | -2.1% | ? | . | 3.0% | ?
O=C(COC(=O)Cc1ccc(Br)cc1)NC12CC3CC(CC(C3)C1)C2 | 39.6% | 2.0% | 10.0% | -21.1% | -1.3% | -1.8% | -0.8% | 2.4%
CC1CCCC(C)N1CCNC(=O)CCc1nnc2n(Cc3ccccc3)c(=O)c3ccccc3n12 (stereo not given) | -6.4% | . | . | -1.0% | -19.7% | . | 2.6% | .
CC1CCCCC1NC(=O)CCCCn1c(=O)[nH]c2ccsc2c1=O (stereo not given) | 0.2% | -5.0%[46.1 µM] | . | 4.6% | 15.2% | . | 8.7% | 4.2%[46.1 µM]
O=C(CSc1nccc(=O)[nH]1)N1CCCc2ccccc21 | 4.8% | 4.6% | 1.1% | 1.1% | . | -2.2% | 3.8% | 6.1%

Outcome played no part in choosing rows; 4.8% or so of the library scored in one or more.
